NS1 inh: influenza NS1 inhibition; S. cerevisiae slowed by influenza A NS1, growth recovery by OD600; hit rate 0.4% among 270,000; Potency, µM (doses to about 46.1 µM), for inactives: top-dose activity, positive = more growth; AID 2326; further: actives are rising curves; nearly all actives have a fitted effect of over 50% in size
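Read-out: OD600 growth recovery of NS1-expressing budding yeast. Cells grown overnight at 30C in -URA glucose medium, washed, resuspended and diluted 1:100 in 2% galactose assay medium, pH 6.0. Same strain lacking NS1 served as positive control.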
Cruzain inh noDet: inhibitors of Trypanosoma cruzi cruzain without detergent; P25779; purified cruzain, Z-FR-AMC fluorescence, no detergent; Potency, µM, for the others: max response, negative = inhibition, actives largely listed as inhibitors; hit rate 2.3% among 200,000; AID 1476; active means well fitted curve in the direction sought with a large enough effect; inconclusive means small, poorly fitted or top-dose-only effect, or another doubt; inactive means no such curve, though single readings can be large; an effect the other way counts as inactive or inconclusive;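 further: plate controls were enzyme without inhibitor for no effect and buffer without enzyme for full effect; nearly all actives have a fitted effect of over 40% in size; top concentration of the series not given in the record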
Target sequence (P25779 123-467 limits assumed): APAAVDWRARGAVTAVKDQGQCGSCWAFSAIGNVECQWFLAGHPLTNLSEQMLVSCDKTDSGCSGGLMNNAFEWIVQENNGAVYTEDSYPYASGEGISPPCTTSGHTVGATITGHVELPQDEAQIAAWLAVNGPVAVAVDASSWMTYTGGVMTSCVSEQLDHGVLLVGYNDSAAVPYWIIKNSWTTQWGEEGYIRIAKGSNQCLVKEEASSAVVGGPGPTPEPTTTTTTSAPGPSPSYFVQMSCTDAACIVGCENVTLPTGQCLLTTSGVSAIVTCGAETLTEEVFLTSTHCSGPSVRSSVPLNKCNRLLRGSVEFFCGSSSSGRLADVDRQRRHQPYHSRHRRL
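Purified cruzain at 1.5 nM, pre-incubated 15 min with compound at room temperature in 100 mM sodium acetate pH 5.5, 5 mM DTT, 0.00005% Triton X-100. Reaction started with 2 uM Z-FR-AMC; AMC fluorescence increase over 60 s gives rate.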
2A StopGo: FMDV 2A StopGo reporter, luciferase signal. Potency, µM (doses to about 57.9 µM), without a hit: at the highest dose signal change, negative = less light. human cells with a luciferase reporter of 2A StopGo recoding; control for the full effect not named in the record. hit rate 1.2% among 410,000; active = well fitted falling curve with a large enough effect; inconclusive = small, poorly fitted or top-dose-only effect; inactive = no such curve, though single readings can be large or run the other way; tested in HEK293T cells; further: on the % scale 0 is the no-effect control and ±100 the full control effect; nearly all actives have a fitted effect of over 45% in size; luciferase light after 4 h
MARV entry inh: blocks Marburg virus binding to or entry into cells; Marburg virus pseudotyped entry inhibition, cell reporter; control for the full effect not named in the record; about a third of the inactives were read at about 46 µM; Potency, µM (highest dose often 37.8 µM), inactives show at the top dose activity change, negative = inhibition, most hits filed as inhibitors; hit rate 1.8% among 300,000; AID 540276; active = well fitted inhibition curve with a large enough effect; inconclusive = small, poorly fitted or top-dose-only effect, or effect the other way; inactive = flat fitted curve, though single readings scatter; tested in HEK293 cells; about a fifth of its hits are not listed in these tables; further: on the % scale 0 is the no-effect control and ±100 the full control effect; luciferase read-out
Cruzain inh Det: inhibitors of Trypanosoma cruzi cruzain with detergent; Potency, µM, inactives show max response, negative = inhibition, actives largely listed as inhibitors; hit rate 0.43% among 200,000; purified cruzain, Z-FR-AMC fluorescence, 0.01% Triton; active means well fitted curve in the direction sought with a large enough effect; inconclusive means small, poorly fitted or top-dose-only effect, or another doubt; inactive means no such curve, though single readings can be large; an effect the other way counts as inactive or inconclusive;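 further: plate controls were neutral wells for no effect and buffer without enzyme for full effect; nearly all actives have a fitted effect of over 40% in size; top concentration of the series not given in the record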
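Purified cruzain (1.5 nM final) was preincubated with compounds for 15 min at room temperature in 100 mM sodium acetate pH 5.5, 5 mM DTT, 0.01% Triton X-100. Reaction started with 2 uM Z-FR-AMC; AMC fluorescence change over 60 s gave activity.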
SARS PLP yeast: blocks SARS-CoV papain-like protease in a yeast assay; Potency, µM (doses to about 32.9 µM), inactives show at the top dose activity, positive = growth rescue; hit rate 0.19% among 330,000; S. cerevisiae expressing SARS-CoV PLpro, growth rescue; control for the full effect not named in the record; further: 0% is about no effect; nearly all actives have a fitted effect of over 55% in size; growth read by luminescence after 48 h
RE007 growth inh: less growth of the S. pombe RE007 Vpr strain. AID 651644. S. pombe RE007 Vpr strain, BacTiter-Glo ATP luminescence, 24 h; control for the full effect not named in the record. hit rate 0.21% among 360,000. Potency, µM (titrated, usually from 92.2 µM), inactives show top-dose activity change, negative = less growth; active = well fitted falling curve with a large enough effect; inconclusive = small, poorly fitted or top-dose-only effect; inactive = no such curve, though single readings can be large or run the other way;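 further: on the % scale 0 is the no-effect control and ±100 the full control effect; nearly all actives have a fitted effect of over 50% in size; the assay follows cell death caused by Vpr and the record does not say whether a fall means rescue or toxicity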
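Fission yeast RE007 carrying one integrated HIV-1 vpr copy, seeded at OD 0.01 in PMG+AL medium with 23 nL pinned compound. Grown 24 h at 30 degrees; viability read by BacTiter-Glo luminescence after 5 min.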
LASV entry inh: blocks Lassa virus binding to or entry into cells | Lassa virus pseudotype entry inhibition, cell reporter; control for the full effect not named in the record | Potency, µM (top dose mostly 37.9 µM), for the others: at the highest dose activity change, negative = inhibition, hits mostly inhibitors | hit rate 1.2% among 300,000 | AID 540256; active means well fitted inhibition curve with a large enough effect; inconclusive means small, poorly fitted or top-dose-only effect, or effect the other way; inactive means flat fitted curve, though single readings scatter; tested in HEK293 cells; further: on the % scale 0 is the no-effect control and ±100 the full control effect; nearly all actives have a fitted effect of over 50% in size; luciferase read-out
An asterisk follows results filed as active; u = inconclusive; x = no result given; [ ] = dose if it differs, or a comment. Unless noted, the call rests on the fitted dose curve; in most records, active means well fitted rising curve with a large enough effect; inconclusive means small, poorly fitted or top-dose-only effect; inactive means no such curve, though single readings can be large or run the other way. Potency means the concentration at half of the fitted maximal effect.

SMILES	NS1 inh	Cruzain inh noDet	2A StopGo	MARV entry inh	Cruzain inh Det	SARS PLP yeast	RE007 growth inh	LASV entry inh
Cc1cccc(NC(=O)CSc2ccc(-c3cccnc3)nn2)c1	-7%	x	u	-15%	x	-3%	-7%	-1%
O=S(=O)(Nc1ccccn1)c1cccc(S(=O)(=O)c2ccc(Br)cc2)c1	-1%	x	77%[activator]	u	x	-1%	-2%	u
COC(=O)C1=C(C)Nc2ncnn2C1c1cccnc1 (stereo not drawn)	u	-2%	14%	u	6.4%	4%	1%	12%
COc1ccc(CN2C(=O)CSCC2=O)cc1OC	0%	x	-12%	x	x	0%	-10%	x
COc1ccc(Cl)cc1C(=O)Nc1ccncc1	-53%	x	1%	1%	x	-16%	-28%	1%
Nc1ccc(C(=O)N/N=C/c2cn(Cc3ccc(F)cc3)c3ccccc23)cc1	13%	x	-20%	-20%[46.1 µM]	x	-1%	-4%	-22%[46.1 µM]
NS(=O)(=O)c1ccc(CCNC(=O)CNC(=O)Cc2ccccc2)cc1	-1%	x	-6%	0%[46.1 µM]	x	1%	5%	17%[46.1 µM]
O=C(c1ccccc1)c1ccc(OCC(O)CNCc2ccc(F)cc2)cc1 (stereo not drawn)	1%	x	2%	u	x	-2%	-18%	20%
CC1SCC(NC(=O)c2ccc(Cl)cc2)CS1 (stereo not drawn)	0%	x	46%[activator]	14%[14.2 µM]	x	0%	-3%	u
CCOC(=O)c1ccc(NC(=O)CSc2c(C(C)C)cnc3c2c(=O)n(C)c(=O)n3C)cc1	x	-15%	-1%	x	6.9%	x	x	-12%[46.1 µM]
CCC(=O)Nc1cc(C(=O)NCC2CCCN2CC)c(OC)cc1N(C)C (stereo not drawn)	4%	-7%	-19%	6%	-6.0%	2%	0%	-1%
COc1cc(C(=O)NC2CCCCC2)ccc1OC1CCN(C(C)=O)CC1	0%	x	2%	1%[46.1 µM]	x	3%	13%	-13%[46.1 µM]
Cc1ccc(N2C(=O)c3ccccc3C2C(=O)c2cc(C)ccc2O)cc1 (stereo not drawn)	-11%	-8%	14%	-24%	-7.7%	-14%	6%	-28%
O=C(N=C1SCC(=O)N1c1ccccc1Cl)c1ccccc1	x	x	25%	1%[46.1 µM]	x	0%	1%	6%
O=C(CSc1nnc(Cc2ccccc2)o1)c1cc(F)ccc1F	4%	x	30%[activator]	x	x	-2%	-15%	x
CCc1ccc(-c2cc3c(=O)n(CC(=O)NCCCN4CCN(C)CC4)ncn3n2)cc1	-14%	x	13%	u	x	u	-5%	u
COc1ccc(NC(=O)OCC(C)C)cc1OC	-66%	-6%	42%[activator]	u	5.0%	3%	19%	4%
O=C(COc1ccc(Cl)cc1Cl)NCCSc1ccc(Cl)cc1	-9%	0%	-13%	u	-7.0%	-9%	-12%	u
Oc1ccccc1-c1nc(/C=C/c2ccccc2Cl)nn1-c1ccccc1	x	u	19%	-2%[46.1 µM]	-4.1%	x	x	-4%[46.1 µM]
Cc1ccc(/C=C/C(=O)NCCc2c[nH]c3ccccc23)o1	x	x	19%	5%	x	-1%	7%	12%
Cc1ccc(C2(C)NC(=O)N(CC(=O)Nc3cc(C)on3)C2=O)cc1 (stereo not drawn)	11%	-8%	9%	12%	7.0%	-11%	0%	-14%
Cn1cc(S(=O)(=O)NC2CCCCCC2)c(=O)n(C)c1=O	17%	x	-4%	3%	x	-1%	-9%	17%
CCN(CC)S(=O)(=O)c1ccc(C(=O)NNc2nc(-c3ccccc3)c3cc(Br)ccc3n2)cc1	21%	u	-27%	u	0.1%	11%	3%	u
COc1ccc(C(=O)NC(=S)NNC(=O)c2ccc(NC(C)=O)cc2)cc1Br	8%	x	-3%	u	x	1%	3%	-26%
Cc1ccc(C(=O)NCCNC(=O)c2cnccn2)cc1	1%	x	-6%	2%[46.1 µM]	x	-2%	0%	27%
(continued)
SMILES	NS1 inh	Cruzain inh noDet	2A StopGo	MARV entry inh	Cruzain inh Det	SARS PLP yeast	RE007 growth inh	LASV entry inh
CC(Oc1cc2oc(=O)c3c(c2cc1Cl)CCC3)C(=O)NCc1cccnc1 (stereo not drawn)	0%	x	-22%	x	x	3%	19%	x
CCN(CC)S(=O)(=O)c1ccc(C(=O)N2CCN=C2SC)cc1	-22%	2%	-6%	u	-0.1%	-1%	4%	-17%
CC1CCCN(c2c(S(=O)(=O)c3ccccc3)cnc3ccc(Cl)cc23)C1 (stereo not drawn)	x	10%	0%	-9%[46.1 µM]	-0.5%	x	x	x
COCCN=c1scc(-c2ccco2)n1/N=C/c1ccc(O)c(O)c1O	3%	x	21%	0%[46.1 µM]	x	u	-25%	-25%
O=C(Nc1ccccc1Cl)N1CCN(c2ccc3nnc(-c4ccc(F)cc4)n3n2)CC1	21%	u	u	-17%	-5.0%	-2%	21%	-23%
COc1cc2c(c(OC)c1)C(c1cccc(F)c1F)CC(=O)N2 (stereo not drawn)	x	-10%	-16%	-7%[46.1 µM]	-1.1%	x	x	29%[46.1 µM]
COc1ccc(NS(=O)(=O)c2ccc(NS(=O)(=O)c3cccs3)cc2)cc1	6%	x	15%	3%[46.1 µM]	x	-1%	27%	-14%[46.1 µM]
C/C(=N\Nc1nnc2c3ccccc3n(C)c2n1)c1ccc(C)o1	-15%	-13%	16%	-39%	-11%	-8%	-27%	u
COc1cc(C)cc(CN2CC=C(c3ccccc3)CC2)c1O	x	x	-23%	u	x	-15%	-18%	-11%
CCOc1ccc(S(=O)(=O)N(CC(=O)Nc2ccc3c(c2)OCO3)c2ccccc2)cc1	x	-2%	-1%	3%[46.1 µM]	-0.9%	x	x	9%[46.1 µM]
CCN(CC(=O)Nc1ccc(C(C)=O)cc1)CC(=O)Nc1ccc2c(c1)OCCO2	x	x	-13%	0%[46.1 µM]	x	0%	11%	-5%[46.1 µM]
CC1CCCC(C)N1NC(=O)Cc1ccccc1 (stereo not drawn)	-3%	x	-23%	3%[46.1 µM]	x	2%	4%	1%
CC(NC(=O)c1cccs1)c1ccc2c(c1)OCO2 (stereo not drawn)	-9%	-26%	20%	u	3.7%	-1%	14%	10%
Cc1cccc(NC(=O)CSCC(=O)N2CCN(C(=O)c3ccco3)CC2)c1	x	x	-12%	-2%	x	0%	-3%	-17%
O=C(COC(=O)c1cc(S(=O)(=O)N2CCOCC2)ccc1F)Nc1cc([N+](=O)[O-])ccc1F	x	x	-18%	4%	x	11%	1%	24%
COc1ccc(C(=O)Nc2nnc(-c3ccccc3)s2)cc1	10%	x	66%[activator]	-14%	x	2%	6%	9%
COc1ccc(C/C(C)=N\NC(=O)c2c[nH]c3ccccc23)cc1OC	1%	x	0%	x	x	0%	11%	x
CC(c1ccccc1)N1C(=O)C2C3C=CC(C4CC34)C2C1=O (stereo not drawn)	-5%	x	-13%	5%[46.1 µM]	x	-1%	x	-23%
N#CC1=C(N)NC(=S)C(C(N)=O)C1c1ccc([N+](=O)[O-])cc1 (stereo not drawn)	-3%	x	2%	1%[46.1 µM]	x	1%	-10%	-15%
COc1ccc(C2/C(=C(\O)c3ccc4c(c3)OCCO4)C(=O)C(=O)N2Cc2ccco2)c(OC)c1 (stereo not drawn)	27%	25%	2%	-2%	-11%	28%	10%	11%
Cc1ccc(C)c(NC(=O)CN2CCN(C3CCCCC3)C(=O)C2=O)c1	x	7%	-21%	x	-0.3%	x	x	2%[46.1 µM]
CCS(=O)(=O)c1nc(S(=O)(=O)c2ccc(C)cc2)c(NCCCOC)s1	x	-11%	-2%	-7%[46.1 µM]	-5.1%	x	x	x
Cc1csc(NC(=O)C2CCCN(S(=O)(=O)c3cnc[nH]3)C2)n1 (stereo not drawn)	u	0%	-19%	x	7.1%	1%	12%	x
CC(C)C(NC(=O)CNC(=O)OC(C)(C)C)C(=O)NCc1ccccc1 (stereo not drawn)	-3%	-9%	20%	u	1.5%	0%	3%	15%
CC(C)c1ccc(Cn2c(COc3ccccc3)nc3ccccc32)cc1	x	-13%	0%	-19%[46.1 µM]	-5.2%	x	x	9%[46.1 µM]
(further entries)
SMILES	NS1 inh	Cruzain inh noDet	2A StopGo	MARV entry inh	Cruzain inh Det	SARS PLP yeast	RE007 growth inh	LASV entry inh
Cc1nc(Cl)c(N=Cc2cccc([N+](=O)[O-])c2)c(Cl)n1	-3%	x	9%	-4%[46.1 µM]	x	-3%	-7%	27%
COc1ccc(NC(=S)N2CCC(NC(=O)c3ccco3)CC2)cc1	11%	x	19%	u	x	15%	2%	9%[46.1 µM]
CC(=O)Nc1ccc(S(=O)(=O)N(Cc2cccnc2)Cc2cc3ccccc3[nH]c2=O)cc1	-13%	x	u	x	x	2%	6%	x
CCCCN(C(=O)CSc1nnc(-c2ccc(OC)cc2)n1CC)c1c(N)n(Cc2ccccc2)c(=O)[nH]c1=O	u	u	21%	19%[46.1 µM]	-1.3%	u	0%	u
CCOc1ccc(NC(=O)C2CC(=O)N(c3ccc(C(C)C)cc3)C2)cc1 (stereo not drawn)	x	8%	-17%	-1%[46.1 µM]	-1.9%	x	x	-1%[46.1 µM]
CN(C)C(=O)Nc1ccccc1CC[N+](=O)[O-]	x	x	5%	20%[46.1 µM]	x	-2%	-7%	-20%
CC12CCC(=O)N1C(C(=O)Nc1nc(-c3ccccc3)cs1)CS2 (stereo not drawn)	x	x	2%	6%	x	6%	24%	-4%
CCc1ccc2nc(Nc3ccc(OC)cc3OC)c(C#N)cc2c1	4%	x	13%	-5%	x	1%	16%	20%[46.1 µM]
CCOc1ccc(Cn2ccnc2)cc1[N+](=O)[O-]	17%	4%	1%	u	-3.2%	13%	-7%	-6%
O=c1[nH]c2ccccc2c(O)c1Cc1ccccc1	5%	x	-8%	u	x	9%	-9%	5%
Cc1ccc(-n2nc(C)c3cc(C(=O)O)sc32)cc1	-25%	-12%	7%	-11%	-3.6%	-10%	6%	14%
CN(CC(=O)NCc1ccc(Cl)cc1)S(=O)(=O)c1ccc2c(c1)c(=O)n(C)c(=O)n2C	x	-4%	3%	0%[46.1 µM]	4.7%	x	x	14%[46.1 µM]
C/C(=N\N=C(N)N)c1ccc(Cl)cc1	4%	-14%	-29%	u	-5.4%	-4%	-6%	6%
CCCn1c2ccccc2c2cnn(CC(=O)NC3CCN(Cc4ccccc4)CC3)c(=O)c21	11%	x	-9%	u	x	-11%	-5%	u
Nc1ccc(Nc2nc(-c3cccs3)cs2)cc1	-1%	x	-23%	19%[46.1 µM]	x	0%	1%	u

Bioassay records: PubChem BioAssay, National Center for Advancing Translational Sciences (NCATS)
